Compound activity (PubChem)
GIV Gai3 FP: inhibitors of GIV GBA-motif binding to rat Galpha-i3; Galpha-i3/FITC-GIV peptide fluorescence polarization, 90 min; hits give low values; scaled: aluminum fluoride 0%, vehicle 100%; percent of control (FP), % (concentration not given with the values); 0.42% of 210,000 active;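 active = replicate mean at 85% of control or lower, very high polarization wells dropped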;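 also: wells of about 15 µL received 100 nL stock; the first replicate is given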
Target sequence (P08753 whole entry, looked up): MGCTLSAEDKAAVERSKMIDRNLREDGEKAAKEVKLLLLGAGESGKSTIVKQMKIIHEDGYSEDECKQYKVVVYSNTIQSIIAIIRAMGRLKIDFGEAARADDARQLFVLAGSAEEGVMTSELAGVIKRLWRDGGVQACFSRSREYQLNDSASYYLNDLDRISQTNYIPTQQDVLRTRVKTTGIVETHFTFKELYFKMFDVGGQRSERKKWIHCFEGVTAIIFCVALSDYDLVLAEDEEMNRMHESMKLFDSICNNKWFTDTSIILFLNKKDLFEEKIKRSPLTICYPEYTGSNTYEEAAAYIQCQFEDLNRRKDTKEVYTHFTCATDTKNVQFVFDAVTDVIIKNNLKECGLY
HCMV NEC inh: inhibitors of HCMV UL50-UL53 nuclear egress complex interaction. AID 1918969. inhibition, % (no concentration beside the values). 0.15% of 190,000 active. HTRF UL50-UL53 interaction, normalized percent inhibition;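 active = both replicates at 50% or more, plus weaker picks with an unusually low signal ratio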;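 also: stock transfer was 100 nL into about 20 µL; 0% = negative control wells and 100% = wells with untagged competitor protein; inactives centre near -12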
Sa growth 42C: blocks Staphylococcus aureus growth. relative growth, % (test concentration not listed). 0.53% of 170,000 active. S. aureus RN4220 growth, OD600, 20 h, 42 °C; hits give low values;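 active = growth at 42 °C up to 50% and 20 or more points under that at 30 °C, or under 10% at both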;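 also: 300 nL library stock went into each well; scaled to the means of positive and negative controls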
Sa growth 42C second temp: recorded beside Sa growth 42C, whose call it bears; relative growth, %; measured here: growth at 30 °C;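 optical density after 20 h as mean of two plates; 100% = untreated growth and lower means inhibition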
An asterisk follows results filed as active; / = no result given; & = joins results of further samples. No enrichment for hits (roughly 0.82% active in at least one column).

SMILES	GIV Gai3 FP	HCMV NEC inh	Sa growth 42C	Sa growth 42C second temp
COC(=O)CN1C(=O)/C(=C/c2ccc(OCc3ccccc3Cl)c(OC)c2)SC1=S	100	-32	/	/
O=C(NC1CCCC1)C(NS(=O)(=O)c1cccc2nsnc12)c1ccccc1 (centres undefined)	108	-72	101	98
Cc1cc(Cl)c(S(N)(=O)=O)cc1OCC(N)=O	108	-12	100	90
Cc1c(C)n(C(=O)CSC(=S)N2CCC(C)CC2)c2ccccc12	108	/	84	98
N#CC(=Nc1cc(Cl)ccc1O)C1=C(O)c2ccccc2C1=O	101	-26	117	95
CCCn1c(C)cc(CNCCSCc2cccs2)c1C	/	1	114	91
COc1ccc(N2Cc3cccc(C(=O)N4CCOCC4)c3C2=O)cc1	106	/	95	94
Cc1cc(S(=O)(=O)NC(C)C)ccc1OCC(=O)NCc1ccc2c(c1)OCO2	101	-3	96	96
CCOc1ccc2ncc3c(-c4cccc(OC)c4)nn(-c4ccccc4)c3c2c1	108	2	83	107
O=c1c2ccccc2nc2n1N=C(c1ccc(Br)cc1)CS2	104	/	109	90
CC1Cc2ccccc2N1C(=O)CNc1cc(C(F)(F)F)ccc1N1CCOCC1 (centres undefined)	/	-10	96	90
COc1ccc(-c2nn3c(NCCCN(C)C)cc(C)nc3c2C)cc1OC	102	-24	/	/
CCn1c(C(=O)NC(C)CCc2ccccc2)cc2sccc21 (centres undefined)	105	/	90	92
CC1(C)CC(=O)C2=C(C1)Nc1cc(C(=O)c3ccccc3)ccc1NC2c1ccc2c(c1)OCO2 (centres undefined)	100	-19	/	/
CC(C)n1c(=S)[nH]c2c1c(=O)[nH]c(=O)n2C	104&102	-13	101&94	81&98
COC(=O)COc1cccc2c1ccc1c3c(c(=O)oc12)CCCC3	110	/	73	76
Cc1ccccc1-n1nc(CO)c(C(=O)NCc2cccs2)n1	100	-20	82	91
CCCc1nc2c3ccccc3ncn2n1	/	-19	89	93
Fc1cccc(Cl)c1C=Nc1cccc(-c2ncon2)c1	95	1	102	65
Cc1cccn2c(=O)c3cc(C(=O)NC(C)c4ccccc4)c(=N)n(CCCN4CCOCC4)c3nc12 (centres undefined)	103	-97	99	91
O=C(c1cccs1)c1cn(CCOc2ccccc2F)c2ccccc12	102	10	96	98
COc1ccc(OCC(=O)Nc2ccccc2SCc2cc(=O)n3oc(C)cc3n2)cc1	100	12	/	/
COC(=O)c1c(C)[nH]c(C)c1-c1ccccc1	/	9	82	81
C=CCn1c(=O)oc2ccc(C(=O)N3CCN(c4cccc(Cl)c4)CC3)cc21	100	-27	/	/
O=C(Nc1ccccc1)C1CCN(c2nccn3nc(-c4ccc(F)cc4)cc23)CC1	104	-23	/	/
CCOc1ccc2[nH]c(C)cc(=O)c2c1	108	-7	100	80
Cc1nn(-c2ccccc2)c2sc(C(=O)N3CCN(c4cccc(Cl)c4)CC3)cc12	98	-25	/	/
O=S(=O)(c1ccc(SCc2ccccc2C(F)(F)F)nc1)N1CCCCC1	/	8	99	105
C=CCn1c(NC(=O)C2CCCCC2)nc2ccccc21	96	-4	/	/
COc1ccc(NC(=S)N2CCCN(Cc3ccc(F)cc3)C2)cc1	104	/	121	88
O=C1OC(c2ccccc2)=N/C1=C1\OC(=O)c2ccccc21	96	-47	88	99
CC(C)(C)c1ccc(OCCNC(=O)c2cccc(Br)c2)cc1	/	-4	79	95
C=CCN1C2=NCCCN2c2ccccc21	93	-20	102	90
O=S(=O)(Nc1ccc(Br)cc1F)c1ccc2nc(-c3ccccc3)[nH]c2c1	106	-29	109	91
Cc1nc2sc3c(c2c2nncn12)CCCC3	104	-2	95	93
CCCN1CCn2c(nc3ccccc32)C1	98	-13	/	/
O=C(Nc1cccnc1)c1c(O)c2ccccc2n(-c2ccccc2)c1=O	99	-24	/	/
CS(=O)(=NS(=O)(=O)c1ccccc1Cl)c1ccc(C(F)(F)F)cn1 (centres undefined)	101	-15	91	91
O=C(NCCn1ccc2ccccc21)c1cc(C(F)(F)F)cc(C(F)(F)F)c1	101	/	103	98
O=S(=O)(Cc1ccc(Cl)cc1)Cc1nc(-c2ccsc2)no1	99	2	95	96
CCOc1ccc(-c2cc(NC(=O)COCc3cc(-c4ccc5c(c4)OCO5)on3)on2)cc1	103	11	/	/
Cc1ccccc1C(=O)Nc1noc2ccccc12	105	-24	/	/
CCn1cnc2c(=O)oc3ccc(S(=O)(=O)N4CCN(c5cc(Cl)ccc5C)CC4)cc3c21	97	-13	91	93
Cc1cc(C)c(C(=O)COC(=O)CCn2c(C)csc2=O)cc1C	/	-18	80	92
Cc1cccc2nc3c(nc12)C(=O)c1ccccc1C3=O	172	-138	70	54

Some of these compounds in order of length of the SMILES, highest first:
SMILES	GIV Gai3 FP	HCMV NEC inh	Sa growth 42C	Sa growth 42C second temp
CCn1cnc2c(=O)oc3ccc(S(=O)(=O)N4CCN(c5cc(Cl)ccc5C)CC4)cc3c21	97	-13	91	93
CCOc1ccc(-c2cc(NC(=O)COCc3cc(-c4ccc5c(c4)OCO5)on3)on2)cc1	103	11	/	/
Cc1nn(-c2ccccc2)c2sc(C(=O)N3CCN(c4cccc(Cl)c4)CC3)cc12	98	-25	/	/
O=C(Nc1ccccc1)C1CCN(c2nccn3nc(-c4ccc(F)cc4)cc23)CC1	104	-23	/	/
O=S(=O)(Nc1ccc(Br)cc1F)c1ccc2nc(-c3ccccc3)[nH]c2c1	106	-29	109	91
O=C(NCCn1ccc2ccccc21)c1cc(C(F)(F)F)cc(C(F)(F)F)c1	101	/	103	98
CS(=O)(=NS(=O)(=O)c1ccccc1Cl)c1ccc(C(F)(F)F)cn1 (centres undefined)	101	-15	91	91
O=S(=O)(c1ccc(SCc2ccccc2C(F)(F)F)nc1)N1CCCCC1	/	8	99	105
O=C(Nc1cccnc1)c1c(O)c2ccccc2n(-c2ccccc2)c1=O	99	-24	/	/
Cc1cc(C)c(C(=O)COC(=O)CCn2c(C)csc2=O)cc1C	/	-18	80	92
O=S(=O)(Cc1ccc(Cl)cc1)Cc1nc(-c2ccsc2)no1	99	2	95	96
CC(C)(C)c1ccc(OCCNC(=O)c2cccc(Br)c2)cc1	/	-4	79	95
Cc1cccc2nc3c(nc12)C(=O)c1ccccc1C3=O	172	-138	70	54
C=CCn1c(NC(=O)C2CCCCC2)nc2ccccc21	96	-4	/	/
COC(=O)c1c(C)[nH]c(C)c1-c1ccccc1	/	9	82	81
Cc1ccccc1C(=O)Nc1noc2ccccc12	105	-24	/	/
CCOc1ccc2[nH]c(C)cc(=O)c2c1	108	-7	100	80
CCCN1CCn2c(nc3ccccc32)C1	98	-13	/	/

The list goes on:
SMILES	GIV Gai3 FP	HCMV NEC inh	Sa growth 42C	Sa growth 42C second temp
CCN(CC)c1nc2c(S(=O)(=O)c3ccc(C(C)C)cc3)nnn2c2ccsc12	96	-14	93	78
O=C(CSc1ncc(S(=O)(=O)c2ccc(Br)cc2)c(=O)[nH]1)NCc1ccccc1Cl	106	-9	89	94
C#CCSc1nc2c(cnn2CCO)c(=O)[nH]1	104	-4	/	/
Cc1ccc(OCCn2c(CCNC(=O)C3CCCCC3)nc3ccccc32)cc1	105	-2	106	69
CCCN(C)S(=O)(=O)c1cccc2c(N)cccc12	104	-26	108	83
C=Cc1ccc(Cn2c(C(=O)OCC)c(NC(C)=O)c3c4c(sc32)CCCC4)cc1	103	-1	/	/
O=C(Nc1ccc(F)cc1F)N1CCC2(CC1)C(=O)NCN2c1ccccc1	96	-14	80	78
CCOC(=O)C(C)Sc1nc(-c2ccccc2Cl)cc(-c2ccccc2)c1C#N (centres undefined)	105	-21	93	88
Cc1ccc(CNC(=O)c2cnc(N3CCCC3)nc2)cc1	102	-30	/	/
Cc1nnc(NC(=O)c2cc(=O)c3ccc(Br)cc3o2)s1	104	-67	/	/
CC1CCN(S(=O)(=O)c2cc(C(=O)NCc3ccccc3)n(C)c2)CC1	96	/	90	85
COc1ccc(N=Cc2c(C)c(C#N)c3[nH]c4ccccc4n3c2=O)c(OC)c1	171	/	99	92
CCCN1CCN(c2cc(C(=O)O)c3cc(NS(=O)(=O)c4ccc(F)cc4)ccc3n2)CC1	101	-29	/	/
COc1ccccc1N1CCN(C(=O)c2c3c(nc4ccccc24)C(=O)N(C2CCCCC2)C3)CC1	103	/	114	83
Cc1[nH]nc2c1C(Cc1ccccc1)C(C#N)=C(N)O2 (centres undefined)	/	-43	65	66

Looked up by structure from the entries so far (2):
SMILES	GIV Gai3 FP	HCMV NEC inh	Sa growth 42C	Sa growth 42C second temp
COC(=O)CN1C(=O)/C(=C/c2ccc(OCc3ccccc3Cl)c(OC)c2)SC1=S	100	-32	/	/
O=C(CSc1ncc(S(=O)(=O)c2ccc(Br)cc2)c(=O)[nH]1)NCc1ccccc1Cl	106	-9	89	94

Further results:
SMILES	GIV Gai3 FP	HCMV NEC inh	Sa growth 42C	Sa growth 42C second temp
O=C1CSc2nnc(-c3ccccc3)n21	108	29	114	100
S=c1nc(-c2cccs2)cn[nH]1	/	-98	39*	73*
Cc1cccc(NS(=O)(=O)c2c(C)[nH]c(=O)[nH]c2=O)c1C	96	3	98	95
COc1cccc(CNC(=O)C2Cc3cc(S(=O)(=O)N4CCCCCC4)ccc3N2C(C)=O)c1 (centres undefined)	109	/	118	92
Cn1nc(C(C)(C)C)cc1C(=O)NNc1c(Cl)cncc1Cl	107	-19	88	87
CC(Sc1nc2ccccc2o1)C(=O)O (centres undefined)	103	-17	101	82
Cc1cccc(Cn2c(SCc3ccc(C(=O)NC4CCCCC4)cc3)nc3cccnc32)c1	102	/	88	96
CCOC(=O)c1cc(-c2ccccc2)n(CCC(=O)N2CCn3c2nc2ccccc23)c1C	98	-16	97	60
O=c1[nH]c(SCc2cccc(F)c2)nc2ccccc12	105	-4	96	101
Cc1ccc(Cn2ccsc2=NC(=O)COC(=O)C2=COCCO2)cc1	/	12	114	100
CCOC(=O)c1c(C)oc2nc(C)nc(NCC3CCCO3)c12 (centres undefined)	103	9	/	/
O=C(Nc1sc2c(c1C(=O)N1CCCCC1)CCCC2)c1ccccc1Cl	104	-18	110	93
N#CC(C#N)=CNc1ccc(Oc2cccnc2)nc1	136	-62	79	71
Cc1ccc2[nH]c3c(=O)n(N)c(C)nc3c2c1	98	-20	112	81
COc1ccccc1CNC(=O)CCc1c(C)nn(-c2ccc(N3CCCCC3)nn2)c1C	102	/	102	94
COc1ccc(NC(=O)C2CCN(C(=O)c3nnc(C(=O)Nc4ccc(F)cc4)s3)CC2)cc1	103	-15	/	/
N#CCn1nnc(-c2ccc3c(c2)OCO3)n1	113	-2	112	93
Cc1cc(C)n(CC(O)CNCc2ccco2)n1 (centres undefined)	102	-6	99	91
O=C(CSc1nnc(-c2cnccn2)s1)c1cccc(C(F)(F)F)c1	98	-2	102	98
O=C(CSc1nnnn1-c1ccc(O)cc1)c1ccc2c(c1)OCCO2	/	-3	86	94
Cc1ccc2c(COC(=O)Cc3n[nH]c(=O)c4ccccc34)cc(=O)oc2c1	/	-23	95	97
CCOC1(C)C(=O)c2ccccc2N1Nc1ccccc1C(=O)CC (centres undefined)	/	0	87	99
c1coc(-c2nc3ccccn3c2Nc2ccc3c(c2)OCCO3)c1	105	-16	93	77
OCCSc1ccc2nnc(-c3ccccc3)n2n1	102	-5	111	55
O=C(c1ccc(CS(=O)(=O)c2ccc(Br)cc2)o1)N1CCCCC1	100	4	108	103
O=C(NC1(C(=O)NC2CCCCC2)CCCCC1)c1ccccn1	103	-30	76	83
O=C(O)c1ccccc1Nc1cccc(OCc2ccc3ccccc3n2)c1	104	-8&-17	/	/
CCOC(=O)C1=C(N)OC2=C(C(=O)CC(C)(C)C2)C1c1ccc(O)cc1 (centres undefined)	102	-42	/	/
CC1Cc2ccccc2N1C(=O)CSc1nncn1-c1ccccc1 (centres undefined)	/	-19	106	92
CC(=O)N1CCCC1c1nc2ccccc2n1CC(C)C (centres undefined)	103	-23	/	/
CCCN1C(=O)C(NC(=O)c2ccccc2OC)(C(F)(F)F)C(C(=O)OC)=C1C (centres undefined)	105	-22	95	83
O=C1C2C(C(=O)N1/N=C/c1cccc(I)c1)C1C=CC2C12CC2 (centres undefined)	98	/	103	80
NS(=O)(=O)c1ccc2nc(NC(=O)COc3ccc(Cl)cc3Cl)sc2c1	98	/	104	83
O=C(O)/C=C/c1ccc(F)cc1	/	-6	86	94
O=C(CN1C(=O)CCn2nc(-c3ccc(Cl)cc3)cc21)N1CCOCC1	103	3	/	/
Cc1ccc(-n2nc(C(=O)N(C)Cc3ccccc3)c3c4ccccc4n(C)c3c2=O)cc1	111	-18	86	102
Cc1ccc(CCNC(=O)NCc2noc3ccccc23)cc1	110	/	115	96
COC(CNC(=O)c1cccc(NS(=O)(=O)c2ccc(Cl)cc2)c1)OC	98	-29	110	91
O=C(NCC1CCCO1)c1cc(-c2ccccc2O)no1 (centres undefined)	109	-17	/	/
CCc1nn(CC(=O)N2CC(C)CC(C)C2)c(=O)c2cc3occc3n12 (centres undefined)	102	6	98	84
CCOC1(OCC)N=C(N)C2(C#N)C3(CCCCC3)C12C#N (centres undefined)	103	3	90	86
O=C(Nc1ccc2[nH]ncc2c1)c1ccccc1	/	-9	106	90
